Source: PubChem
Hedgehog cleavage = Drosophila hedgehog isoform A inhibitors, primary screen, biochemical, plate reader, single concentration (AID 588832); Biochemical plate reader assay, Hedgehog inhibition; active compounds read high; inhibition, % at 30.3 µM; 8,000 tested, under 10 active; in the data active = inhibition from about 57%;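 note: 0% = neutral control wells and 100% = positive control wells; cholesterol-driven self-cleavage of fly hedgehog protein by fluorescence polarization; read one hour after cholesterol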
* marks the source's active call; other numbers are inactive results. Some of the compounds tested; rates above refer to the full screens.

Start of the listing, in advance:
Hedgehog cleavage	structure
6.8	C[C@H](/C=C/[C@@]1(O)[C@H](C)C[C@H](O)CC1(C)C)O[C@@H]1O[C@H](CO)[C@@H](O)[C@H](O)[C@H]1O
3.4	CCc1nc(SCC(=O)NCCc2ccc(OC)c(OC)c2)c2c(=O)n(C)c(=O)n(C)c2n1

All compounds of this part, from the start:
Hedgehog cleavage	structure
6.8	C[C@H](/C=C/[C@@]1(O)[C@H](C)C[C@H](O)CC1(C)C)O[C@@H]1O[C@H](CO)[C@@H](O)[C@H](O)[C@H]1O
3.4	CCc1nc(SCC(=O)NCCc2ccc(OC)c(OC)c2)c2c(=O)n(C)c(=O)n(C)c2n1
5.4	CCC1CCCCN1Cc1nc2c(c(=O)n(C)c(=O)n2C)n1CCCc1ccccc1 (stereo unspecified)
5.1	Cc1ccc(CNC(=O)CCC(=O)N2CC(C)Oc3ccccc32)cc1 (stereo unspecified)
6.4	Cc1ccc(C2CC(c3cccs3)=NN2C(=O)CSC2=NN3CCCC(=O)N=C3S2)cc1 (stereo unspecified)
5.4	CCN(CC)S(=O)(=O)c1ccc(C(=O)N2CCN=C2SC)cc1
2.7	CC1CCc2cc(F)ccc2N1C(=O)c1cnc2sccn2c1=O (stereo unspecified)
5.0	COc1ccc(C(=O)NCc2cn3cccc(C)c3n2)cc1OC
0.0	O=C(O)CC(Cn1cnnn1)c1ccccc1 (stereo unspecified)
5.8	COc1ccc(S(=O)(=O)N2CCOC2CNC(=O)C(=O)NCCCn2ccnc2)cc1OC (stereo unspecified)
3.5	COc1ccc(N(CC(=O)NCc2ccccc2OC)S(=O)(=O)c2c(C)nn(C)c2C)cc1
1.7	C[C@H](N)C(=O)N1CCC(C(=O)N[C@@H](Cc2ccccc2)C(=O)Nc2ccc(F)cc2)CC1
8.7	CCOC(=O)C(C)Oc1cccc2c(=O)n(CC(=O)N3CCN(C(=O)OCC)CC3)ccc12 (stereo unspecified)
3.4	COc1ccc(-c2nc(CCNC(=O)c3ccco3)cs2)cc1OC
8.9	CC(C)N(Cc1nc(-c2ccccc2)no1)C(=O)COc1ccccc1
20.8	Cn1cccc1Cc1nnc(SCC(=O)Nc2ccc3c(c2)OCO3)n1-c1ccc(F)cc1
7.7	CCCNC(=O)CS(=O)Cc1nc(-c2cccc(OC)c2)oc1C (stereo unspecified)
6.9	C[C@@H]1CC[C@]2(C(=O)O)CC[C@]3(C)C(=CCC4[C@]56CC[C@@](O)(OC5)C(C)(C)C6CC[C@]43C)C2[C@H]1C (stereo partly specified)
8.7	Cc1cc2oc3c(c(=O)c2cc1C)C(c1ccc(C(C)C)cc1)N(CCCN1CCOCC1)C3=O (stereo unspecified)
25.0	COC(=O)c1c(-c2ccc(C)cc2)csc1N
2.0	CCN(Cc1ccccc1)S(=O)(=O)c1c[nH]c(C(=O)OC)c1
10.3	CC(C)C[C@@H](C(=O)NC1CC1)N1C(=O)N2CCc3c([nH]c4ccccc34)[C@@]2(C)C1=O
-3.4	C=CCC12C=C(OC)C(=O)OC(OC)(C1O)[C@H](c1ccc3c(c1)OCO3)[C@H]2C (stereo partly specified)
8.6	O=c1cc(-c2ccc(O)cc2)oc2cc(O)c(C3OC(CO)C(O)C(O)C3O)c(O)c12 (stereo unspecified)
-12.5	Cc1ccc(Cl)cc1N1CCN(C(=O)c2cc3c(=O)n(C)c4ccccc4c3n2C)CC1
0.0	O=C(Nc1nnc(C23CC4CC(CC(C4)C2)C3)s1)c1ccc(N2C(=O)CCC2=O)cc1
16.7	CCOC(=O)c1[nH]c2c(c1-c1ccccc1)C(=O)CC(c1ccccc1)C2 (stereo unspecified)
1.8	CC(=O)c1ccc(NC(=O)CCS(=O)(=O)c2ccc3c(c2)n(C)c(=O)c(=O)n3C)cc1
8.6	Nn1cnc2c(ncn2C2OC(CO)C(O)C2O)c1=O (stereo unspecified)
0.9	OC(CN1CCN(c2ccccc2)CC1)c1ccc2c(c1)CCN2 (stereo unspecified)
-2.4	O=C(Cn1c(=O)sc2ccccc21)NCc1ccccn1
-5.4	CCc1ccc(N(CC(=O)O)S(=O)(=O)c2c(C)noc2C)cc1
0.0	COc1cc(C(C)=O)cc(OC)c1O
7.2	CCc1nnc(NC(=O)CSc2nc3c(c(=O)n2C)SC(C)C3)s1 (stereo unspecified)
11.1	Cc1ccc2c(c1)N(CC(=O)NCCCN1CCCCC1)C(=O)c1cccnc1O2
5.1	Cc1cc(C)c(NS(=O)(=O)c2ccc3c(c2)NC(=O)C(C)C(=O)N3)c(C)c1 (stereo unspecified)
5.2	Cc1nc2ccccc2c2oc(C(=O)N3CCC(N4CCCCC4)CC3)cc12
-5.6	CCOC(=O)Cn1nc(-c2ccccc2)c2cnc3ccc(CC)cc3c21
5.3	COc1ccc(-c2noc(N3CCC(C(=O)NCCCN4CCC(C)CC4)CC3)n2)cc1
12.5	CN(C)S(=O)(=O)c1ccc(S(=O)(=O)N2CCN(CCC#N)CC2)cc1

4 of the compounds above, field by field.
> CCc1nnc(NC(=O)CSc2nc3c(c(=O)n2C)SC(C)C3)s1 (stereo unspecified)
  Hedgehog cleavage: 7.2
> Cc1ccc2c(c1)N(CC(=O)NCCCN1CCCCC1)C(=O)c1cccnc1O2
  Hedgehog cleavage: 11.1
> Cc1cc(C)c(NS(=O)(=O)c2ccc3c(c2)NC(=O)C(C)C(=O)N3)c(C)c1 (stereo unspecified)
  Hedgehog cleavage: 5.1
> Cc1nc2ccccc2c2oc(C(=O)N3CCC(N4CCCCC4)CC3)cc12
  Hedgehog cleavage: 5.2

Remaining list, next part.
Hedgehog cleavage	structure
6.8	Cc1ccc2c(c1)N(C(=O)CCC(=O)NCCCN1CC(C)CC(C)C1)CCO2 (stereo unspecified)
4.2	Cn1c(SCC(=O)Nc2ccc(F)cc2F)nnc1-c1cccnc1
5.4	CC(C)(C)c1ccc(-c2cc(N)n[nH]2)cc1
10.3	CCCc1cc(=O)oc2c3c(c4c(c12)OC(C)(C)C=C4)OC(C)C(C)C3O (stereo unspecified)
28.6	CCn1c(CCCNC(=O)c2ccc(F)cc2)nc2ccccc21
5.4	COc1ccc(-c2noc(N3CCC(C(=O)Nc4cccc(OC)c4)CC3)n2)cc1
29.2	CC1CCc2nn(CC(=O)N3CCc4ccccc43)cc2C1 (stereo unspecified)
11.8	Cc1cc(OC(C)C(=O)N(Cc2ccco2)C2CCS(=O)(=O)C2)ccc1Cl (stereo unspecified)
10.8	O=C(COc1cc2oc(=O)c3c(c2cc1Cl)CCC3)N1C[C@H]2C[C@@H](C1)c1cccc(=O)n1C2
5.4	Cc1noc(NS(=O)(=O)c2ccc(NC(=O)CCn3c(=O)oc4ccccc43)cc2)c1C
1.7	Cc1cccc(-c2nc(CS(=O)CC(=O)NC3CCCC(C)C3C)c(C)o2)c1 (stereo unspecified)
14.5	CC1CN(C(c2ccco2)c2sc3ncnn3c2O)CC(C)O1 (stereo unspecified)
33.3	COc1ccc(Cc2nc(-c3ccc(Br)o3)no2)cc1OC
5.2	C=C1CCCC2OC(CC3=CC4/C(C)=C/CC(C)CC(/C=C(\C)C(O)C5CC(O)C(O)C(CCC(O)/C=C/C(C)=C/CCC6=NCCC(C3)C64C)O5)OC(=O)CC3OC(C(O)C1)C(O)C3O)CC(O)C2O (stereo unspecified)
11.1	Cn1c(SCC(=O)Nc2ccccc2F)nnc1-c1cccnc1
8.0	COc1cccc(C2c3c(oc4ccc(F)cc4c3=O)C(=O)N2CCN2CCOCC2)c1OC (stereo unspecified)
8.3	O=C1CCC(=O)N1c1cccc(-c2nc3ccccc3o2)c1
-1.9	COc1ccc(C(=O)c2coc3ccc(O)c(CN4CCOCC4)c23)cc1
10.7	CCOc1ccc(C2CC(c3ccc(F)cc3)Nc3nc(N)nn32)cc1 (stereo unspecified)
0.9	CCOC(=O)C(C)Oc1cccc2c(=O)n(CC(=O)Nc3ccc(OCC)cc3)ccc12 (stereo unspecified)
7.7	CCOC(=O)C1CCN(C(=O)C(=O)Nc2ccc3nc4n(c(=O)c3c2)CCCCC4)CC1
6.3	Cc1ccccc1-c1nc(CN2CCC(C(=O)N3CCN(c4ccccn4)CC3)CC2)c(C)o1
6.9	c1ccc2c(c1)ccc1ccccc12
1.9	Cc1nnc(SCCn2c(N3CCCC(C)C3)nc3c2c(=O)n(C)c(=O)n3C)s1 (stereo unspecified)
6.9	CC(=O)Nc1ccc(NC(=O)COc2cc(O)c3c(c2)OC(C)(C)CC3=O)cc1
5.8	CC(CCC(=O)Nc1nncs1)C(=O)O (stereo unspecified)
5.4	Cc1ccc2oc(=O)ccc2c1
4.6	CCCC(=O)NCCCc1nc2ccccc2n1CC
12.6	COC1=CC(=O)C=C(OC)C1(O)CC(C)=O
-5.4	CC(=O)c1ccc(C(=O)Nc2sc3c(c2C(N)=O)CCN(Cc2ccccc2)C3)cc1
10.0	COCCNC(=O)CN1C(=O)COc2ccc(S(=O)(=O)N3CC(C)CC(C)C3)cc21 (stereo unspecified)
3.6	COc1ccc(N(CC(=O)NCc2cccnc2)S(=O)(=O)c2ccccc2)c(OC)c1
15.0	O=C(CSc1nnc(-c2ccccc2Cl)o1)N1CCCCC1
8.2	CCCCc1cc(=O)oc2cc(C)cc(OCC(=O)N3CCC(C(=O)O)CC3)c12
9.1	COc1cccc(NC(=O)Cn2nc(Cc3cccnc3)c3ccccc3c2=O)c1
17.4	COc1ccc(C(=O)CCC(=O)N2CCN(c3ccccc3)CC2)cc1
12.5	Cc1ccccc1CSc1nnc(Cn2c(=O)sc3ccccc32)n1C
8.6	COc1ccccc1CNC(=O)COc1cc(O)c2c(c1)OC(C)(C)CC2=O
5.4	CC1(C)Cc2c(C#N)c(N3CCCC3)nc(-c3ccco3)c2CO1
3.3	Cc1cc2c(c(C)c1CCO)C(=O)[C@H](C)C2
3.4	Cc1nnc(NC(=O)c2ccco2)s1
3.6	O=C(Nc1cccc(Cl)c1)N1CCN(Cc2ccccc2)CC1
1.7	Cc1nc2ccc(S(=O)(=O)CCC(=O)NCc3ccc(Cl)cc3)cc2s1
4.9	CCCCc1cc(=O)oc2cc(C)cc(OCC(=O)NC(Cc3ccc(Cl)cc3)C(=O)O)c12 (stereo unspecified)
30.0	CCc1ccc(N2CCN(C(=O)c3ccc(OC)c(OC)c3)CC2)cc1
14.0	Cc1c(C)c2ccc(OC(C)C(=O)N[C@@H](Cc3c[nH]c4ccccc34)C(=O)O)c(C)c2oc1=O (stereo partly specified)
6.8	Cc1c2cnn(CC(=O)NCCCN3CCCCC3C)c(=O)c2c(C)n1Cc1ccccc1 (stereo unspecified)
10.2	CC(NC(=O)c1ccco1)C(c1cccs1)N1CCN(c2ccccc2)CC1 (stereo unspecified)
13.6	COC(=O)c1oc2ccc(Br)cc2c1NC(C)=O
4.4	O=C1c2ccccc2C(Nc2cccnc2)N1Cc1ccc2c(c1)OCO2 (stereo unspecified)
8.6	O=C1CN(C(=O)N[C@@H](Cc2ccccc2)C(=O)N[C@@H](Cc2ccccc2)C(=O)O)c2ccccc2N1
-8.7	CCOC(=O)N1CCC(NC(=O)c2ccc(CS(=O)(=O)c3ccc(OC)cc3)o2)CC1
10.2	CCOc1ccc(NC(=O)C2CSC(c3ccncc3)=N2)cc1 (stereo unspecified)
0.0	CC1CCCN(C(=O)CSCC(=O)Nc2nc(-c3cccs3)cs2)C1 (stereo unspecified)
24.1	O=C(Nc1nc(-c2ccc3c(c2)OCO3)cs1)C1COc2ccccc2O1 (stereo unspecified)
10.3	CCCCCCCCC(=O)O
6.9	COc1ccc(CCNC(=O)COc2cc(C)cc3oc(=O)c(C)c(C)c23)cc1OC
1.8	COCCn1c(SC)nnc1-c1c[nH]c2ccccc12
3.4	COc1ccc(NC(=O)CCS(=O)(=O)c2ccc3nc(C)sc3c2)cc1OC
3.5	Cc1ccc(CCNC(=O)c2cc(S(=O)(=O)N3CCOCC3)cn2C)cc1

2 entries from above, set out differently:
> CCCCc1cc(=O)oc2cc(C)cc(OCC(=O)NC(Cc3ccc(Cl)cc3)C(=O)O)c12 (stereo unspecified)
  Hedgehog cleavage: 4.9
> CCc1ccc(N2CCN(C(=O)c3ccc(OC)c(OC)c3)CC2)cc1
  Hedgehog cleavage: 30.0

The list continues.
Hedgehog cleavage	structure
3.5	CCCOc1ccc(CNC(=O)CCC(=O)n2ncc3cc(C)ccc32)cc1
2.7	COc1ccc(C2CC(=O)N3CN(c4ccc(C)c(Cl)c4)CSC3=C2C#N)cc1OC (stereo unspecified)
9.5	COc1ccc(OC)c(NC(=O)CS(=O)(=O)Cc2nc(-c3ccccc3C)oc2C)c1
16.7	CC1CCCC(NC(=O)c2ccc3c(c2)N(Cc2ccccc2)C(=O)CS3=O)C1C (stereo unspecified)
-1.8	COc1ccc(C(=O)c2coc3ccc(O)c(CN4CCCCC4)c23)cc1
1.8	Cc1cc(OCC(=O)N2CCC(C(N)=O)CC2)c2c(C)c(C)c(=O)oc2c1
6.8	Cc1oc2cc3oc(=O)c(CC(=O)N[C@@H](C)C(=O)NC(Cc4ccc(Cl)cc4)C(=O)O)c(C)c3cc2c1C (stereo partly specified)
5.1	CC(C)Oc1ccc(CNC(=O)c2ccc3c(c2)N(C)CCS3)cc1
6.6	O=c1cc(CCc2ccccc2)oc2cccc(O)c12
5.2	Cc1cc(C)n2nc(CNS(=O)(=O)c3ccc(C(C)(C)C)cc3)nc2n1
14.9	COCCN1C(=O)c2oc3ccccc3c(=O)c2C1c1ccc(OC)c(OC)c1 (stereo unspecified)
7.2	CCOC(=O)C1CCN(S(=O)(=O)c2ccc3c(c2)NC(=O)C(C)C(=O)N3)CC1 (stereo unspecified)
3.4	CCOc1ccc(CNC(=O)CCC(=O)N2CCSc3ccccc32)cc1
0.0	Cc1c(C)c2ccc(OCC(=O)N3CCC[C@@H]3C(=O)O)c(C)c2oc1=O
2.7	CCN1C(=O)c2ccccc2S(=O)c2ccc(C(=O)N3CCN(C(=O)c4ccco4)CC3)cc21 (stereo unspecified)

Looked up above:
Cc1c(C)c2ccc(OCC(=O)N3CCC[C@@H]3C(=O)O)c(C)c2oc1=O @ Hedgehog cleavage: 0.0
COCCN1C(=O)c2oc3ccccc3c(=O)c2C1c1ccc(OC)c(OC)c1 (stereo unspecified) @ Hedgehog cleavage: 14.9
CC(C)Oc1ccc(CNC(=O)c2ccc3c(c2)N(C)CCS3)cc1 @ Hedgehog cleavage: 5.1
